TRPML1 ag – agonists of human TRPML1 channel. AID 624414. hit rate 0.12% among 410,000. TRPML1-expressing cells, Ca2+ dye fluorescence, FDSS; host cell line not named in the record; reference of the full effect not given here. Q9GZU1. activation, % (no concentration beside the values); in the data active = activation above about 50%; inconclusive = about 30% to 50%; inactive = below about 30%; also: 0% is about no effect; the text of the record puts the active cut at 80%
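Tet-induced TRPML1-DL cells, 1,500 per well, cultured overnight, were loaded with a no-wash Ca2+ dye for 45–90 min. Calcium fluorescence was recorded on the FDSS for 110 s after compound addition, before the EC80 agonist (4 uM 54-4) was added.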
D2 agonist – agonists of human D2 dopamine receptor (beta-arrestin); DiscoveRx PathHunter D2 beta-arrestin, luminescence, 90 min; 100% = 57 uM dopamine signal; activation, % (no concentration beside the values); hit rate 0.084% among 360,000; AID 624465; in the data active = activation above about 40%; inconclusive = about 15% to 40%; inactive = below about 15%; also: compound concentration not given in the record; the text of the record calls up to 30% inactive
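DiscoveRx PathHunter D2 beta-arrestin cells (2,100/well) attached overnight, then compound-stimulated 90 min at 37 C in HBSS/10 mM HEPES/0.1% Tween-20 buffer; beta-galactosidase complementation read by luminescence after 1 h at ambient temperature. Dopamine 57 uM final (EC100) as control.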
PINK1 expr mod – modulators of PINK1 expression; hit rate 0.2% among 410,000; PINK1 immunofluorescence, high-content cytometry, 24 h; AID 624263; Potency, µM (top dose mostly 76.6 µM), for the others: at the highest dose activation (PINK1 increase), usual class: activators; active = well fitted activation curve with a large enough effect; inconclusive = small, poorly fitted or top-dose-only effect; inactive = flat fitted curve, though single readings scatter; cell line not stated here;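 also: potency is read from the fitted curve at half-maximal effect; % of control where 0% means no effect; nearly all actives have a fitted effect of over 65% in size; a mitochondrial uncoupler was the plate control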
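Measures PINK1 amount and localization on or inside mitochondria by immunofluorescence. Stable cells get compounds at 5 concentrations for 24 hours before fixation and staining; CCCP controls included.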
TRPML1 blocker – blocks the human TRPML1 channel. activity change, negative = inhibition, % (test concentration not listed). hit rate 0.02% among 390,000. AID 624415. Q9GZU1. TRPML1-inducible cells, Ca2+ dye fluorescence, FDSS; active compounds read low; inhibition of EC80 agonist-evoked calcium signal; in the data active means activity change below about -50%; inconclusive means about -30% to -50%; inactive means above about -30%;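 also: stimulus is agonist 54-4 at its EC80 concentration; % is scaled to controls: 0 for no effect and ±100 for the full control effect; compound concentration not given in the record; the text of the record puts the active cut at -80%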
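Tet-induced TRPML1-DL cells loaded with Ca8 no-wash calcium dye were read kinetically on FDSS. Compound addition was followed by EC80 agonist 54-4 (4 uM final); inhibition was read over 110 s.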
Six1-Eya2 blk – blocks human Six1 binding to Eya2; Q15475+O00167; AlphaScreen GST-Six1/His-Eya2 binding, biochemical; active compounds read low; control for the full effect not named in the record; activity change, % (test concentration not listed); hit rate 0.56% among 360,000; AID 651725; in the data active = activity change below about -65%; inconclusive = about -30% to -65%; inactive = above about -30%; also: % is scaled to controls: 0 for no effect and ±100 for the full control effect
Target sequence (O00167 whole entry, looked up): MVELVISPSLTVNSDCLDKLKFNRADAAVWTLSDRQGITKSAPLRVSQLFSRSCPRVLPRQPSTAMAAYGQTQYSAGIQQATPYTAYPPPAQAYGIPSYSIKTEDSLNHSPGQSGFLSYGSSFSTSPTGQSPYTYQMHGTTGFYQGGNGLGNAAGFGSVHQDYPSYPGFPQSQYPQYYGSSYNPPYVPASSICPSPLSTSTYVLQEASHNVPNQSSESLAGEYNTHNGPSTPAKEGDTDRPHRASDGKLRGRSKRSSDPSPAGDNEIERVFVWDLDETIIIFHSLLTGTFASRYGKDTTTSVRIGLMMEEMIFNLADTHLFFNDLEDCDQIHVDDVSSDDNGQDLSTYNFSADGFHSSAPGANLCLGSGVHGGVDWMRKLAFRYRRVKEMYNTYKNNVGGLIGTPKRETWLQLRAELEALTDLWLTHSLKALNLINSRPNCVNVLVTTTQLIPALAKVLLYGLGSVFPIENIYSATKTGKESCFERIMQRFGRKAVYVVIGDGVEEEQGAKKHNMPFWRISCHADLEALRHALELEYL
Target sequence (Q15475 whole entry, looked up): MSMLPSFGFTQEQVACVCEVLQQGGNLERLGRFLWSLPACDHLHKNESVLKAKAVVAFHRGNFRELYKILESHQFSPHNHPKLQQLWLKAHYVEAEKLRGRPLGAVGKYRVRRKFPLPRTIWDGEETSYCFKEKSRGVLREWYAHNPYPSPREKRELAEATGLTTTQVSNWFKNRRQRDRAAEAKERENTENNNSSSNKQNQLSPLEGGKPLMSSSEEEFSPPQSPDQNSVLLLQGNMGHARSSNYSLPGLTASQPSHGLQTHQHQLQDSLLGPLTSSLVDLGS
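Homogeneous AlphaScreen proximity assay pairing GST-Six1 with His-tagged Eya2 (added as 5X mix: 250 nM and 500 nM) in 50 mM Tris pH 8.0, 300 mM NaCl, 1 mM TCEP. Glutathione donor and nickel acceptor beads; 1 h, 37 °C, dark.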
CtBP-E1A blk – CtBP/E1A binding inhibition. AlphaScreen GST-E1A/His-CtBP binding, 1536-well; active compounds read low; control for the full effect not named in the record. activity change, % (no concentration beside the values). hit rate 0.49% among 340,000. AID 651724; in the data active means activity change below about -65%; inconclusive means about -30% to -65%; inactive means above about -30%; also: % is scaled to controls: 0 for no effect and ±100 for the full control effect
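GST-E1A and His-tagged CtBP (125 nM each as 5X stock) were preincubated with pin-transferred compound for 2 h at 37 °C in the dark, then glutathione donor and nickel acceptor beads were added for 1 h before AlphaScreen reading.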
* = called active by the depositor; & = joins results of further samples; [ ] = dose if it differs, or a comment.

Screening COc1ccc(OC)c(CNC(=O)c2cc(=O)[nH]c3ccc(S(=O)(=O)N4CCCCC4C)cc23)c1 (stereo unspecified) returned TRPML1 ag 1.4, PINK1 expr mod 0.6% and TRPML1 blocker 8.2.
CC(OC(=O)Cc1n[nH]c(=O)c2ccccc12)C(=O)Nc1ccccc1[N+](=O)[O-] (stereo unspecified) was read as TRPML1 ag 0.5, D2 agonist 1.2, PINK1 expr mod 1.2%, TRPML1 blocker 15.2, Six1-Eya2 blk -6.0 and CtBP-E1A blk -1.3.
For CC(C)C(=O)N1CCC1(C)C(=O)NCc1cc(Cl)ccc1F (stereo unspecified) the results were TRPML1 ag -0.8, D2 agonist 5.0, PINK1 expr mod -0.2%, TRPML1 blocker 61.3, Six1-Eya2 blk 10.6 and CtBP-E1A blk -23.6.
Screening COc1cc2oc(=O)c3c(c2cc1OCC(=O)c1c(C)n(C)c2ccccc12)CCCC3 returned TRPML1 ag -0.2, D2 agonist -1.8, PINK1 expr mod 4.4%, TRPML1 blocker -9.3, Six1-Eya2 blk -15.4 and CtBP-E1A blk -26.4.
Screening CCOCCCNC(=O)C1(O)c2cc(Br)ccc2NC(=O)N1c1cccc(OC)c1 (stereo unspecified) returned TRPML1 ag 0.5, D2 agonist -1.6, PINK1 expr mod 5.4%, TRPML1 blocker -18.6, Six1-Eya2 blk 5.5 and CtBP-E1A blk 5.1.
Cc1cc(C)nc(SCc2n[nH]c(=S)n2C)n1 was read as TRPML1 ag 1.5, D2 agonist 5.5, PINK1 expr mod -1.7%, TRPML1 blocker 17.1, Six1-Eya2 blk 12.0 and CtBP-E1A blk -1.3.
Nc1nc(-c2cc(Cl)cc(Cl)c2OC(F)F)cs1 was read as TRPML1 ag 7.5, D2 agonist -1.9, PINK1 expr mod -0.4%, TRPML1 blocker 6.1, Six1-Eya2 blk -4.1 and CtBP-E1A blk -6.0.
Screening COc1ccc(C(=O)Nc2nnc(SCc3cc(=O)c4cc(C)cc(C)c4[nH]3)s2)cc1 returned TRPML1 ag 2.2, PINK1 expr mod 1.7% and TRPML1 blocker 14.6.
Screening Cc1cc(C(=O)CCC(=O)N2CCN(c3ccccc3F)CC2)c(C)s1 returned TRPML1 ag 1.6, D2 agonist 3.5, PINK1 expr mod 1.0%, TRPML1 blocker -15.3, Six1-Eya2 blk -4.3 and CtBP-E1A blk 1.8.
`COc1cccc(N2CCN(C(=O)c3ccc(CS(=O)Cc4ccc(Cl)cc4)o3)CC2)c1` (stereo unspecified) gave TRPML1 ag -1.0, D2 agonist 0.5, PINK1 expr mod -1.0%, TRPML1 blocker -2.3, Six1-Eya2 blk -7.7 and CtBP-E1A blk -5.1.
`CCOc1ccc(C2c3[nH]c4ccccc4c3C[C@H]3C(=O)N(C4CC4)CC(=O)N23)cc1OC` (stereo partly specified) gave TRPML1 ag 0.7, D2 agonist -0.6, PINK1 expr mod -0.5%, TRPML1 blocker 15.1, Six1-Eya2 blk -3.7 and CtBP-E1A blk 0.2.
`CN(C)c1ccc(/C=c2\sc3n(c2=O)CCCN=3)cc1` gave TRPML1 ag 8.7, D2 agonist -8.1, PINK1 expr mod -0.9%, TRPML1 blocker 9.0, Six1-Eya2 blk -1.2 and CtBP-E1A blk 0.0.
For COc1ccc(-c2noc(CN(C)S(=O)(=O)c3ccc(Cl)cc3)n2)cc1OC the results were TRPML1 ag 1.8, D2 agonist 2.2, PINK1 expr mod -3.1%[38.3 µM], TRPML1 blocker -18.6, Six1-Eya2 blk 2.9 and CtBP-E1A blk 8.5.
For Cc1cc(-c2cc(-c3ccc(Cl)cc3)on2)nc(NC2CCCC2)n1 the results were TRPML1 ag -0.2, D2 agonist 0.5, PINK1 expr mod 8.2%, TRPML1 blocker 12.6, Six1-Eya2 blk 15.4 and CtBP-E1A blk -15.9.
CCC1CCCCN1C(=O)COc1ccc(S(=O)(=O)N2CCOCC2)cc1Cl (stereo unspecified) was read as TRPML1 ag -0.5, D2 agonist 0.5, PINK1 expr mod 2.1%, TRPML1 blocker 3.6, Six1-Eya2 blk -0.7 and CtBP-E1A blk -3.4.
Cc1nn(-c2ccccc2)c(C)c1/C=N/NC(=O)CSc1nnc(SCc2ccc(Cl)cc2)s1 was read as TRPML1 ag 0.7, D2 agonist 3.9, PINK1 expr mod -1.8%, TRPML1 blocker -21.6, Six1-Eya2 blk -7.9 and CtBP-E1A blk 5.1.
Screening COc1ccc(NC(=O)CC2(CC(=O)O)CCCC2)cc1 returned TRPML1 ag -0.3, D2 agonist -2.7, PINK1 expr mod 3.9%, TRPML1 blocker -13.2, Six1-Eya2 blk 2.2 and CtBP-E1A blk -0.8.
Screening Fc1cccc(Cc2c(C3CCCCC3)nc3ccc(Cl)cn23)c1 returned TRPML1 ag -0.1, D2 agonist 3.1, PINK1 expr mod 29.9%, Six1-Eya2 blk 0.7 and CtBP-E1A blk 1.5.
`COCC1CCCN(C(=O)c2cc(COc3cncc(Cl)c3)on2)C1` (stereo unspecified) gave TRPML1 ag -0.7, D2 agonist -4.5, PINK1 expr mod 0.0%, TRPML1 blocker -5.9, Six1-Eya2 blk -6.2 and CtBP-E1A blk 0.0.
`CCOC(=O)c1sc(NS(=O)(=O)c2ccc(C)cc2)nc1C` gave TRPML1 ag 3.2, D2 agonist -2.1, PINK1 expr mod inconclusive, TRPML1 blocker 1.1, Six1-Eya2 blk -3.9 and CtBP-E1A blk 8.2.
`CC(C)(C)C1=Nn2c(nnc2-c2ccccn2)SC1` gave TRPML1 ag -0.3, D2 agonist -4.6, PINK1 expr mod -2.1%, TRPML1 blocker 4.6, Six1-Eya2 blk inconclusive and CtBP-E1A blk inconclusive.
For CC[C@]12c3[nH]c4cc(CCC(=O)N(C)C)ccc4c3CCN1C(=O)[C@@H](CC(=O)NCC13CC4CC(CC(C4)C1)C3)C[C@@H]2C(=O)N1CCN(C(=O)c2ccco2)CC1 the results were TRPML1 ag -0.4, D2 agonist 0.8, PINK1 expr mod 5.4%, TRPML1 blocker -8.3, Six1-Eya2 blk -3.3 and CtBP-E1A blk 1.4.
COCCNC(=O)C(C)N1c2cccc3cccc(c23)S1(=O)=O (stereo unspecified) was read as TRPML1 ag 3.3, D2 agonist 1.8, PINK1 expr mod -0.8%, TRPML1 blocker 11.7, Six1-Eya2 blk 3.6 and CtBP-E1A blk -2.3.
CC(C)C(NC(=O)c1c(F)cccc1F)C(=O)OCN1C(=O)c2ccccc2C1=O (stereo unspecified) was read as TRPML1 ag 3.3, D2 agonist 2.4, PINK1 expr mod 0.5%, TRPML1 blocker -14.4, Six1-Eya2 blk -0.9 and CtBP-E1A blk -3.5.
For Cc1ccc(NC2OC(C(O)CO)C(O)C2O)cc1[N+](=O)[O-] (stereo unspecified) the results were TRPML1 ag 1.1, D2 agonist -2.6, PINK1 expr mod 2.7%, TRPML1 blocker 11.1, Six1-Eya2 blk 6.1 and CtBP-E1A blk 4.2.
For O=C(c1ccc(=O)[nH]n1)N1CCc2ccccc2C1 the results were TRPML1 ag -1.0, D2 agonist -6.1, PINK1 expr mod 1.4%, TRPML1 blocker -1.8 and Six1-Eya2 blk 8.9.
COc1ccccc1CNC(=O)C1CCC(=O)N(CCCc2ccccc2)C1 (stereo unspecified) was read as TRPML1 ag -0.9, D2 agonist -12.1, PINK1 expr mod -2.1%, TRPML1 blocker 9.1, Six1-Eya2 blk 1.6 and CtBP-E1A blk 10.1.
Screening CN(C)c1ccc(/C=N/n2ncc3ccccc32)cc1 returned TRPML1 ag 0.8, D2 agonist 2.3, TRPML1 blocker -6.7, Six1-Eya2 blk 38.2 and CtBP-E1A blk 12.2.
COC(=O)c1ccc2c(c1)sc(=NC(=O)c1ccc(S(=O)(=O)N3CCCCC3)cc1)n2C was read as TRPML1 ag 0.6, PINK1 expr mod -0.2% and TRPML1 blocker 18.1.
`Cc1ccnc(NS(=O)(=O)c2ccc(NC(=O)Cc3ccc(Br)cc3)cc2)n1` gave TRPML1 ag 0.6, D2 agonist -3.9, PINK1 expr mod 0.0%, TRPML1 blocker 16.4, Six1-Eya2 blk -6.1 and CtBP-E1A blk -1.1.
`COC(=O)C1=CNC=C(C(=O)OC)C1c1ccccc1Cl` gave TRPML1 ag 1.8, D2 agonist 0.7, PINK1 expr mod 0.3%, TRPML1 blocker 49.5, Six1-Eya2 blk 12.1 and CtBP-E1A blk 13.1.
`COc1cc(/C=C(\C#N)c2nc3ccc(C)cc3[nH]2)ccc1OCc1ccc(C)cc1` gave TRPML1 ag 2.1, PINK1 expr mod 8.3% and TRPML1 blocker -2.9.
For CCN(CCCNC(=O)Cn1ncc2c([nH]c3ccccc32)c1=O)c1cccc(C)c1 the results were TRPML1 ag 1.8, PINK1 expr mod 4.6% and TRPML1 blocker -4.8.
Screening C=CCn1c(SCn2nnc3ccccc3c2=O)nc2scc(-c3cccs3)c2c1=O returned TRPML1 ag 0.7, D2 agonist -2.2, TRPML1 blocker 4.2, Six1-Eya2 blk -9.4 and CtBP-E1A blk -5.7.
Cc1cc(C)cc(NS(=O)(=O)CCCS(=O)(=O)Nc2cc(C)cc(C)c2)c1 was read as TRPML1 ag 2.1, D2 agonist 1.0, PINK1 expr mod -4.0%, TRPML1 blocker -2.8, Six1-Eya2 blk -22.5 and CtBP-E1A blk -18.5.
For Cc1ccccc1C(=O)NNC(=O)c1cc(S(=O)(=O)N2CCOCC2)ccc1C the results were TRPML1 ag 0.5, D2 agonist -2.2, PINK1 expr mod -0.2%, TRPML1 blocker 0.6, Six1-Eya2 blk 0.5 and CtBP-E1A blk -19.2.
COc1ccccc1C(=O)NNC(=O)c1ccc2ccccc2c1 was read as D2 agonist -0.3, PINK1 expr mod 2.0% and Six1-Eya2 blk -1.4.
Screening COc1ccc(CCn2c(-c3ccco3)nc3nc4ccccc4nc32)cc1 returned TRPML1 ag -0.2, D2 agonist -2.3, PINK1 expr mod 2.4%, TRPML1 blocker 4.3, Six1-Eya2 blk -7.1 and CtBP-E1A blk -7.4.
CCCN(CC(=O)Nc1ccccc1C)C(=O)c1ccc(OCC(=O)N2CCOCC2)c(OCC)c1 was read as TRPML1 ag -0.6, D2 agonist -2.4, PINK1 expr mod -0.7%, TRPML1 blocker 11.6 and Six1-Eya2 blk -3.1.
For CC1(C)CCC(C)(C)NC(=S)N1 the results were TRPML1 ag -0.7&-0.2, D2 agonist -2.5&-1.4, PINK1 expr mod 0.3%&-1.9%, TRPML1 blocker 5.0&5.0, Six1-Eya2 blk 3.9&0.5 and CtBP-E1A blk 7.2&-13.8.

Molecules listed so far that have a nitro group on carbon (2):
CC(OC(=O)Cc1n[nH]c(=O)c2ccccc12)C(=O)Nc1ccccc1[N+](=O)[O-] (stereo unspecified) was read as TRPML1 ag 0.5, D2 agonist 1.2, PINK1 expr mod 1.2%, TRPML1 blocker 15.2, Six1-Eya2 blk -6.0 and CtBP-E1A blk -1.3.
For Cc1ccc(NC2OC(C(O)CO)C(O)C2O)cc1[N+](=O)[O-] (stereo unspecified) the results were TRPML1 ag 1.1, D2 agonist -2.6, PINK1 expr mod 2.7%, TRPML1 blocker 11.1, Six1-Eya2 blk 6.1 and CtBP-E1A blk 4.2.
